Marburg entry inh – qHTS for inhibitors of binding or entry into cells for Marburg Virus; Potency, µM (highest dose often 37.8 µM), without a hit: at the top dose activity change, negative = inhibition, hits mostly inhibitors; actives 1.8% (n = 300,000); Marburg virus pseudotyped entry inhibition, cell reporter; control for the full effect not named in the record; about a third of the inactives were read at about 46 µM; active = well fitted inhibition curve with a large enough effect; inconclusive = small, poorly fitted or top-dose-only effect, or effect the other way; inactive = flat fitted curve, though single readings scatter; tested in HEK293 cells; about a fifth of its hits are not listed in these tables; note: % is set by controls: 0 for no effect and ±100 for the full control effect; luciferase read-out
RE007 growth inh – qHTS Assay for Inhibitors of the HIV-1 protein Vpr; S. pombe RE007 Vpr strain, BacTiter-Glo ATP luminescence, 24 h; control for the full effect not named in the record; Potency, µM (top dose mostly 92.2 µM), for the others: at the highest dose activity change, negative = less growth; actives 0.21% (n = 360,000); AID 651644, 2012; active = well fitted falling curve with a large enough effect; inconclusive = small, poorly fitted or top-dose-only effect; inactive = no such curve, though single readings can be large or run the other way;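 note: % is set by controls: 0 for no effect and ±100 for the full control effect; nearly all actives have a fitted effect of over 50% in size; the assay follows cell death caused by Vpr and the record does not say whether a fall means rescue or toxicity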
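Fission yeast strain RE007, carrying one chromosomally integrated HIV-1 vpr copy, was seeded at OD 0.01 in PMG+AL medium with 23 nL pinned compound. After 24 h at 30 °C and 99% humidity, viability was read by BacTiter-Glo luminescence.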
StopGo reporter – High Throughput Screening for Foot and Mouth Disease Virus Antivirals | human cells with a luciferase reporter of 2A StopGo recoding; control for the full effect not named in the record | Potency, µM (series often up to 57.9 µM), for inactives: at the top dose signal change, negative = less light | actives 1.2% (n = 410,000) | AID 1159524, 2015; active = well fitted falling curve with a large enough effect; inconclusive = small, poorly fitted or top-dose-only effect; inactive = no such curve, though single readings can be large or run the other way; tested in HEK293T cells; note: % is set by controls: 0 for no effect and ±100 for the full control effect; nearly all actives have a fitted effect of over 45% in size; luciferase light after 4 h
Cruzain inh noDet – qHTS Assay for Promiscuous and Specific Inhibitors of Cruzain (without detergent); Cruzipain (Trypanosoma cruzi), P25779; purified cruzain, Z-FR-AMC fluorescence, no detergent; Potency, µM, for inactives: max response, negative = inhibition, actives largely listed as inhibitors; actives 2.3% (n = 200,000); active = well fitted curve in the direction sought with a large enough effect; inconclusive = small, poorly fitted or top-dose-only effect, or another doubt; inactive = no such curve, though single readings can be large; an effect the other way counts as inactive or inconclusive;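 note: plate controls were enzyme without inhibitor for no effect and buffer without enzyme for full effect; nearly all actives have a fitted effect of over 40% in size; top concentration of the series not given in the record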
Target sequence (P25779 123-467 limits assumed): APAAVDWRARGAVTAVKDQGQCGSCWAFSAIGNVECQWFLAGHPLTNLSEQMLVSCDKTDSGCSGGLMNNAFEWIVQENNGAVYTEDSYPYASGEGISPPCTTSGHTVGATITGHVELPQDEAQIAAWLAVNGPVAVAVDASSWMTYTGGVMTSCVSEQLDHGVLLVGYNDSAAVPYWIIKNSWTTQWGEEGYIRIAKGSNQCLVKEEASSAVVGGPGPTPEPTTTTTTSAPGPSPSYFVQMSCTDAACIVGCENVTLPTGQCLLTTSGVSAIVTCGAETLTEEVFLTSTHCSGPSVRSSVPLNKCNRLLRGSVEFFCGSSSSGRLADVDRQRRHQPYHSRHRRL
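Detergent-free condition (0.00005% Triton X-100) in acetate buffer pH 5.5 with DTT. 1.5 nM enzyme and compound were pre-mixed 15 min, then 2 uM Z-FR-AMC substrate added; reaction progress from fluorescence change between first and third reads (60 s).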
NS1 inh – qHTS Assay for Inhibitors of Influenza NS1 Protein Function; S. cerevisiae slowed by influenza A NS1, growth recovery by OD600; Potency, µM (titrated, usually from 46.1 µM), inactives show at the highest dose activity, positive = more growth; actives 0.4% (n = 270,000); AID 2326, 2010; note: actives are rising curves; nearly all actives have a fitted effect of over 50% in size
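Read-out: OD600 growth recovery of NS1-expressing budding yeast. Cells grown overnight at 30C in -URA glucose medium, washed, resuspended and diluted 1:100 in 2% galactose assay medium, pH 6.0. Same strain lacking NS1 served as positive control.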
Cruzain Triton – qHTS Assay for Promiscuous and Specific Inhibitors of Cruzain (with detergent); Cruzipain (Trypanosoma cruzi), P25779; purified cruzain, Z-FR-AMC fluorescence, 0.01% Triton; Potency, µM, for inactives: max response, negative = inhibition, most hits filed as inhibitors; actives 0.43% (n = 200,000); active = well fitted curve in the direction sought with a large enough effect; inconclusive = small, poorly fitted or top-dose-only effect, or another doubt; inactive = no such curve, though single readings can be large; an effect the other way counts as inactive or inconclusive;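 note: plate controls were neutral wells for no effect and buffer without enzyme for full effect; nearly all actives have a fitted effect of over 40% in size; top concentration of the series not given in the record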
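Detergent-containing arm of a paired screen for aggregation-based inhibition: 0.01% Triton X-100 present. Cruzain at 1.5 nM cleaved 2 uM Z-FR-AMC at pH 5.5 with 5 mM DTT; AMC fluorescence gain over 60 s measured activity.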
LASV entry inh – qHTS for Inhibitors of binding or entry into cells for Lassa Virus; Lassa virus pseudotype entry inhibition, cell reporter; control for the full effect not named in the record; AID 540256, 2011; actives 1.2% (n = 300,000); Potency, µM (series often up to 37.9 µM), without a hit: top-dose activity change, negative = inhibition, most hits filed as inhibitors; active means well fitted inhibition curve with a large enough effect; inconclusive means small, poorly fitted or top-dose-only effect, or effect the other way; inactive means flat fitted curve, though single readings scatter; tested in HEK293 cells; note: % is set by controls: 0 for no effect and ±100 for the full control effect; nearly all actives have a fitted effect of over 50% in size; luciferase read-out
SARS PLP yeast – qHTS of Yeast-based Assay for SARS-CoV PLP. S. cerevisiae expressing SARS-CoV PLpro, growth rescue; control for the full effect not named in the record. Potency, µM (series often up to 32.9 µM), inactives show at the top dose activity, positive = growth rescue. actives 0.19% (n = 330,000). AID 485353, 2010; note: 0% is about no effect; nearly all actives have a fitted effect of over 55% in size; growth read by luminescence after 48 h
Starred values were filed as active, the others as inactive; ? = inconclusive; nt = no result given; & = joins results of further samples; [ ] = remark or other dose. Unless noted, calls come from the whole dose curve; as a rule, active means well fitted rising curve with a large enough effect; inconclusive means small, poorly fitted or top-dose-only effect; inactive means no such curve, though single readings can be large or run the other way. Potency is the fitted concentration of half-maximal effect.

SMILES | Marburg entry inh | RE007 growth inh | StopGo reporter | Cruzain inh noDet | NS1 inh | Cruzain Triton | LASV entry inh | SARS PLP yeast
CC(=O)NC(CC(=O)OCc1ccc([N+](=O)[O-])cc1)c1ccccc1 (centres undefined) | -8%[46.1 µM] | 9% | 19% | nt | -8% | nt | 2%[46.1 µM] | 1%
CC1CN(S(=O)(=O)c2ccc(C(=O)N(CCCN(C)C)c3nc4c(Cl)cccc4s3)cc2)CC(C)O1 (centres undefined) | ? | -5% | -12% | nt | -1% | nt | 29%[46.1 µM] | 24%
COCCNC(=O)CN1C(=O)NC(c2ccccc2)(c2ccccc2)C1=O | 6%[46.1 µM] | 6% | -7% | nt | 2% | nt | 7% | 0%
Cc1nc2cc(NC(=O)N3c4ccccc4CC3C)ccc2n1C (centres undefined) | ? | -27% | nt | -9% | 3% | -2.3% | ? | 3%
CN1CCN(c2ccc(NC(=O)c3sc4ccccc4c3Cl)cc2)CC1 | ? | -1% | 1% | nt | nt | nt | ? | -7%
COc1ccc(C2=NN(CCC(=O)NC3CCC(C)CC3)C(=O)CC2)cc1 (centres undefined) | nt | 5% | -17% | nt | 6% | nt | nt | 3%
COc1ccc(-n2c(=O)c3ccccc3n(CC(=O)OCc3ccccc3)c2=O)cc1OC | 4%[46.1 µM] | -5% | 4% | nt | nt | nt | -27% | -1%
CN(CC(=O)Nc1cccc(S(=O)(=O)N2CCOCC2)c1)CC(=O)Nc1ccc(Cl)c(C(F)(F)F)c1 | ? | 2% | ? | nt | nt | nt | ? | nt
COc1cccc(CNC(=O)C(C)n2ccc3cc(S(=O)(=O)N4CCCC4)ccc32)c1 (centres undefined) | nt | 3% | -26% | nt | -4% | nt | nt | 7%
COc1ccc(-c2cc(C(=O)N/N=C/c3ccc4c(c3)OCO4)c3ccccc3n2)c(OC)c1 | 4µM* | 16% | -6% | ? | 3% | -4.0% | 2.5µM* | 0%
Cc1ccc2nc(/C(C#N)=C/c3ccccc3F)[nH]c2c1 | nt | nt | 29% | -18% | nt | -3.6% | 12%[46.1 µM] | nt
Cc1cc(NC(=O)Cn2cnc3sc(C)c(-c4ccccc4)c3c2=O)no1 | 3%&3% | 10% | -19% | 4% | 3% | -2.8% | 9% | 3%
COc1ccc2[nH]cc(S(=O)(=O)c3ccc(C)c(C)c3)c(=O)c2c1 | 3%[46.1 µM] | nt | 14% | -8% | nt | 0.9% | 0%[46.1 µM] | nt
O=C(N/N=C/c1cn(-c2ccccc2)nc1-c1ccccc1)c1ccco1 | -30% | -4% | -18% | 4% | 3% | -10% | -7% | -1%
COc1cc(C(=O)N2CCC(c3nc4ccccc4s3)CC2)cc(OC)c1OC | -19%[46.1 µM] | nt | -23% | 14% | nt | -5.3% | 10%[46.1 µM] | nt
CCCCCOC(=O)Cc1c(O)c2ccccc2[nH]c1=O | -12% | -3% | -9% | -13% | -73% | 0.9% | -9% | -2%
COC(=O)c1cc(C)sc1NC(=O)C1C2C=CC(CC2)C1C(=O)O (centres undefined) | 17% | 7% | -13% | 1% | -23% | -4.3% | -2% | 5%
O=C(c1ccccc1)c1cnc(Nc2ccccc2Cl)s1 | ? | -15% | -1% | -5% | -66% | -8.7% | -12% | -11%
c1ccc(COc2cccc(CN3CCc4ccccc4C3)c2)cc1 | 15%[46.1 µM] | 7% | -4% | nt | 0% | nt | -1%[46.1 µM] | 3%
O=C(COC(=O)Cc1ccc(F)cc1)NC1CCS(=O)(=O)C1 (centres undefined) | 4% | 17% | 1% | nt | nt | nt | 5% | -1%
C=C(C)COc1ccc(-c2ncncc2-c2ccccc2OC)c(O)c1 | ? | -5% | ? | nt | 1% | nt | -19%[46.1 µM] | -10%
Cc1ccccc1OCC(=O)Nc1ccc(OCc2cc(=O)n3ccsc3n2)cc1 | 6%[46.1 µM] | nt | -17% | -12% | nt | 0.1% | -2%[46.1 µM] | nt
CCn1c(=O)cc(OCC(=O)Nc2cccc(C)n2)c2ccccc21 | -12% | 6% | -29% | -8% | -8% | 1.7% | 8% | 8%
CC(c1ccccc1)N1CCn2c(nc3cc(NC(=O)c4cccs4)ccc32)C1 (centres undefined) | -30% | -9% | nt | 32µM* | -56% | -4.3% | -17% | -14%
CCC(=O)N(Cc1ccco1)c1nc(-c2cc(OC)ccc2OC)cs1 | -22% | 7% | 7% | -11% | 6% | -3.7% | -6% | 8%
CN1CCN(CC(=O)N(Cc2c(C#N)c3ccccc3n2C)c2ccccc2)CC1 | ? | -19% | 10% | -1% | 2% | 2.9% | ? | 8%
Cc1ccc(CC2C(=O)N(c3nc(C)cc(C)n3)C(=O)C2C)cc1 (centres undefined) | 14%[46.1 µM] | 6% | -13% | nt | 3% | nt | nt | 0%
O=C(O)c1c2c(nc3ccccc13)/C(=C/c1ccc(O)cc1)CCC2 | 0% | 4% | 16% | nt | nt | nt | 3% | 1%
CCOC(=O)C1CCCN(S(=O)(=O)c2ccc(S(N)(=O)=O)cc2)C1 (centres undefined) | ? | 7% | -27% | nt | nt | nt | -14%[46.1 µM] | -1%
Cc1cc(-c2ccccc2)nc(SCC(=O)N2CCCC2)n1 | ? | 2% | -14% | nt | 2% | nt | -11%[46.1 µM] | 1%
COc1ccc(C(=O)Nc2ccc3nc(SCC(=O)N4CCc5ccccc54)sc3c2)cc1 | -14%[46.1 µM] | nt | -19% | 14% | nt | -1.4% | -4%[46.1 µM] | nt
COc1ccc(C(=O)C2CCCN(C(=O)/C=C/c3ccccn3)C2)c(C)c1 (centres undefined) | -3%[46.1 µM] | -5% | -3% | nt | 1% | nt | 6% | -2%
CC(NC(=O)COC(=O)c1ccc(Cl)cc1O)c1ccc(F)cc1 (centres undefined) | -2% | 15% | -13% | nt | nt | nt | 23% | 1%
COc1ccc(CN2CCCC(C(=O)c3ccc(Cl)cc3)C2)c(O)c1 (centres undefined) | nt | -3% | -13% | nt | -11% | nt | nt | 0%
CC(=O)Nc1ccc(NC(=O)c2ccc(Cl)c(S(=O)(=O)N3CCc4ccccc43)c2)cc1 | -14% | -3% | ? | nt | nt | nt | -6% | nt
COc1cc(NC(=O)Nc2cc(C)on2)cc(OC)c1OC | -6%[46.1 µM] | -14% | -10% | nt | -5% | nt | -27%[46.1 µM] | 2%
Cc1cc(C)cc(OCC(=O)Nc2ccc(-c3nc4ncccc4o3)cc2C)c1 | nt | nt | -7% | -1% | nt | 1.2% | 2%[46.1 µM] | nt
COc1ccc(NC(=O)CCn2c(-c3ccc(F)cc3)cc(C(C)=O)c2C)c(OC)c1 | nt | nt | -18% | ? | nt | -4.5% | ? | nt
CC(C)C[C@H]1CN=C(Nc2ccccc2)N1CCC1CCCCC1 | nt | -2% | 0% | nt | -19% | nt | nt | -2%
COc1cc(Nc2ncc3c(n2)CCN(Cc2cc(Br)cs2)C3)cc(OC)c1 | nt | nt | -25% | 25µM* | nt | -7.5% | -1%[46.1 µM] | nt
CSCCCNC(=S)Nc1cccc(S(=O)(=O)NC2=NCCC2)c1 | ? | 10% | 53%[activator] | nt | 3% | nt | 14% | -1%
CC(C)(C)NC(=S)NCC1CC1 | nt | -3% | -10% | nt | 8% | nt | nt | 0%
COc1cccc(/C=N/NC(=O)Cn2cnc3c2c(=O)n(C)c(=O)n3C)c1OC | 2% | -20% | -3% | nt | -7% | nt | -6% | 0%
CN(CC(=O)Nc1cccc(F)c1)C(=O)/C=C/c1ccc(Br)s1 | 15%[46.1 µM] | -9% | -20% | nt | nt | nt | 7% | -7%
CC1CCCCN1C(C(=O)O)c1ccccc1 (centres undefined) | 0%[46.1 µM] | 3% | -8% | nt | 3% | nt | 0%[46.1 µM] | -1%
CCN(CC1CCCO1)C(=O)CCc1nnc(CCc2ccc(OC)cc2)o1 (centres undefined) | 6% | -18% | 7% | nt | 7% | nt | 12% | -3%
CN1C(=S)SC(N(O)C(=O)Nc2ccccc2)C1(C)C (centres undefined) | 2% | -18% | 17% | 9% | 11% | 0.4% | 22% | 1%
COc1ccccc1NS(=O)(=O)c1cccc(C(=O)N/N=C(\C)c2ccncc2)c1 | -1% | -18% | 6% | nt | nt | nt | -7% | 0%
Cc1ccc(-n2c(=O)[nH]c3c(C(N)=O)nc(CC(C)C)nc32)cc1 | 4% | 18% | -18% | 3% | 4% | -0.2% | -29% | 1%
Cc1oc(C(=O)O)cc1CSc1nnc(-c2ccccc2)n1C | ? | 9% | -13% | -2% | 9% | -1.3% | 2% | -6%
COc1ccc(Nc2c([N+](=O)[O-])ccc3c2=NC2(CCCCC2)N=3)cc1 | 12%[46.1 µM] | -26% | -16% | nt | nt | nt | ? | 0%
Cc1cnc(CNC(=O)C2CCC(=O)N(CCc3ccc(Cl)cc3)C2)cn1 (centres undefined) | 16%[46.1 µM] | -12% | 19% | nt | -11% | nt | ? | -2%
Cc1cccn2c(=O)c3cc(C(=O)NCc4cccnc4)c(=N)n(C)c3nc12 | -9% | nt | nt | -2% | 1% | 2.4% | nt | 9%
O=C(NCc1ccco1)NCC(F)(F)F | -13% | 26% | -18% | 4% | 1% | 8.2% | 8% | -1%
CC(C)OCCCN1CN(S(=O)(=O)c2cccc(Cl)c2)c2nc3ccccc3nc21 | 0% | 25% | 13% | 29% | 6% | -7.4% | 4% | 3%
CCC(=O)c1ccc(OCC(O)CNC(C)c2ccccc2)cc1 (centres undefined) | ? | 0% | ? | -12% | -17% | -1.2% | -7% | -14%
Cc1cccc(OCCNc2ccc([N+](=O)[O-])cn2)c1 | ? | -7% | -8% | nt | nt | nt | -26% | -5%
O=C(NNC(=O)c1cccc2ccccc12)c1cccc(F)c1 | -1%[46.1 µM] | 5% | 15% | nt | nt | nt | -30%[46.1 µM] | nt
COc1ccc(C)cc1NC(=O)C1CCCN(S(=O)(=O)c2ccc3c(c2)CCCN3C(C)=O)C1 (centres undefined) | nt | 3% | ? | ? | 9% | -2.3% | 5%[46.1 µM] | 10%

Compound activity deposited in PubChem by National Center for Advancing Translational Sciences (NCATS).

Compounds were not picked by outcome; any-hit rate near 4.5%.
